Assay outcomes: PubChem, Center for Chemical Genomics, University of Michigan
CDC25B-CDK2 inh – human CDC25B-CDK2/CyclinA binding inhibition; P30305+P24941; HTRF CDC25B-CDK2/CyclinA binding, anti-His/anti-Flag; hits give high values; z-score (concentration not given with the values); 94,000 compounds, 0.72% hits; AID 1259370;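 note: score is relative to mean and SD of negative controls; strong numbers were not always called active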
HIV TAR-Tat – HIV-1 TAR-Tat binding disruption; HIV-1 TAR RNA, Tat peptide displacement FRET; hits give high values; z-score (concentration not given with the values); 100,000 compounds, 0.6% hits; AID 1259389;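 note: score is relative to mean and SD of negative controls; some compounds called inactive have numbers as strong as hits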
Numbers without * were called inactive; . = not tested or not shown.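 Rule for the calls: active = z-score from 3 up in half or more of its runs; inactive = the rest.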

SMILES | CDC25B-CDK2 inh | HIV TAR-Tat
Cc1[nH]c2ccccc2c1C(=O)C(=O)Nc1ccc2c(c1)OCCO2 | -2.2 | -0.99
Cc1ccc(NC(=O)C2Sc3nnc(C)n3NC2c2ccc(Cl)cc2)c(C)c1 (stereo not drawn) | -1.1 | 2.5
CSc1cccc(NC(=O)C2CCN(S(=O)(=O)c3cnc[nH]3)CC2)c1 | -0.3 | 0.92
CCN(CC)CCn1nnc2c(=O)oc3ccccc3c21 | -1.4 | 2.7
CCOC(=O)N1CCC(NC(=O)C2CCN(C(=O)c3cc4sccc4n3C)CC2)CC1 | -0.43 | -0.46
CC(C)(C)OC(=O)NC(CSCc1ccccc1)C(N)=O (stereo not drawn) | -1.4 | .
CCc1ccc(C2=Nn3c(nnc3-c3ccccc3)SC2)cc1 | . | -0.45
O=C(Cn1cc(S(=O)(=O)c2ccc(F)cc2)c(=O)c2ccccc21)Nc1ccc2c(c1)OCCO2 | -1.5 | 1.1
CN(CC(=O)NC1CCCCCCC1)S(=O)(=O)c1cccc2cccnc12 | 0.15 | .
Cc1cccc(N2CCN(c3ncnc4onc(C)c34)CC2)c1C | . | -0.15
CC(C)CC1=NN(C(=O)c2ccncc2)C(O)(C(F)(F)F)C1 (stereo not drawn) | -0.51 | .
Cc1ccc(Cl)cc1-n1nnc(-c2nc(-c3ccc(Cl)cc3)no2)c1N | . | 0.53
Cc1sc(-n2cccc2CNCc2ccc(F)cc2)c(C(=O)O)c1C | 0.75 | 1.5
CC1(C)CC(CCC(=O)Nc2ccc(S(=O)(=O)Nc3nccs3)cc2)C(=O)O1 (stereo not drawn) | -0.01 | .
O=C1CC(c2ccccc2)CC2=C1C(c1c(F)cccc1Cl)Nc1ccccc1N2 (stereo not drawn) | -1.8 | .
Cn1c(CCNC(=O)C2CCCCC2)nc2cc(NC(=O)c3cccs3)ccc21 | 0.66 | 0.01
O=C(Nc1ccc(Br)cc1)C1CCCN(c2cnccn2)C1 (stereo not drawn) | -1.1 | -0.77
Cc1ccc2nc(C(O)C(O)c3nc4ccc(C)cc4[nH]3)[nH]c2c1 (stereo not drawn) | 1.2 | 1.6
CCOc1ccc(-c2nn3c(COc4ccccc4)nnc3s2)cc1 | -1.8 | 0.77
CCC(C)Oc1ccccc1C1C=C(C(=O)O)Nc2ncnn21 (stereo not drawn) | -0.2 | 1.3
CCCNC(=O)C1=Cc2sc3c(c2CS1)CCCC3 | . | -1.7
COc1ccc(NC2CCCCC2NS(=O)(=O)c2ccc(Cl)cc2)cc1 (stereo not drawn) | -1.4 | 1.2
O=c1ccc(-c2ccc(S(=O)(=O)Nc3ccc(Cl)cc3)s2)n[nH]1 | . | -1.3
Cc1ccc(-c2c(C(F)(F)F)nn3c(NCCOCCO)cc(C)nc23)cc1 | -1 | -1.2
CCCS(=O)(=O)NCCc1sc2nc(-c3ccc(Cl)cc3)nn2c1C | . | 0.05
CCOC(=O)C(C)Oc1cc(OC(C)C(=O)OCC)c2c3c(c(=O)oc2c1)CCCC3 (stereo not drawn) | -0.86 | .
CC(Sc1nnc(Cn2c(=O)sc3ccccc32)n1C)c1ccccc1 (stereo not drawn) | -0.91 | .
CC(=O)N1CC(C)Sc2ccc(S(=O)(=O)N3CCCCC3)cc21 (stereo not drawn) | . | 1.1
CCN(CC)c1ccc(NC(=O)c2c(F)cccc2F)c(N(CC)CC)n1 | -1.3 | .
Cc1ccc(-c2[nH]ncc2CNc2ccc(Br)c(C)c2)cc1 | 1.5 | 2.7
O=S(=O)(NCc1ccc(F)cc1)c1ccc(N2CCCCS2(=O)=O)cc1 | . | 0.17
Cc1ccc(NS(=O)(=O)c2cn(C)c(C)n2)cc1C | . | 1.1
O=C(NCc1ccco1)N1CCc2c(sc3c2CCCC3)C1c1ccccc1 (stereo not drawn) | . | -0.14
CCN(CC)S(=O)(=O)c1ccc2[nH]cc(C(=O)NC3CC3)c(=O)c2c1 | -1.7 | .
O=C(CC1CCCCC1)NCc1n[nH]c(=O)c2ccccc12 | . | 1
COCCN(CCOC)Cc1c(C)[nH]c2c(C)c(C)ccc2c1=O | -0.74 | 0.08
CCOC(=O)c1c[nH]c2ccc3ccccc3c2c1=O | -2.7 | .
Cc1ccc(-n2c(COc3cccc(C)c3)n[nH]c2=S)cc1 | -1.4 | .
O=C(NC1CCCCC1)c1cc(-c2ccncc2)nc2ccc(S(=O)(=O)N3CCOCC3)cc12 | . | 1.7
CCOC(=O)C1CCCCN1c1c(-c2ccc(C)cc2)c(=O)c1=O (stereo not drawn) | . | 1.9
CC(=O)N1CCC2(CC1)CC(=O)c1cc(OCC(=O)N3CCCC3)ccc1O2 | 0.35 | .
O=C(Cc1ccccc1)N(c1ccc2oc(=O)sc2c1)S(=O)(=O)c1ccccc1 | -1.9 | 0.43
C/C=C/COc1nc2c(c(=O)n(C)c(=O)n2C)n1C | -0.52 | .
Cc1cc(C)c(S(=O)(=O)NCCc2cc3cc(C)c(C)cc3[nH]c2=O)c(C)c1 | -2.5 | .
Cc1nc2c(c(SCC(=O)c3ccc(F)cc3)n1)CCC2 | 0.35 | 0.8
CC1(C)CC(C(N)=O)C(C)(C)N1 (stereo not drawn) | -1 | .
CC1(C)Cc2nc3sc4c(NCCCN5CCOCC5)ncnc4c3cc2CO1 | . | -0.37
c1ccc(-c2cc(N3CCOCC3)n(-c3ccccc3)n2)cc1 | -2.1 | -0.19
O=C(Oc1ccc(Cl)cc1)c1cccs1 | -1.6 | 0.6
Fc1ccccc1Nc1nc2ccccc2n2cnnc12 | -3.3 | -0.93
Cc1ccc(C)c(NC(=O)CCc2c(C)nc3ncnn3c2C)c1 | -0.98 | .
CC(=O)N1N=C(c2ccccc2)OC1c1cccnc1 (stereo not drawn) | -0.91 | -0.38
CN1C(=O)C(C)(C)c2cc(S(=O)(=O)N3CCN(C(=O)c4ccco4)CC3)ccc21 | . | -0.41
CS(=O)(=O)CCC(C(=O)Nc1ccc(F)cc1F)N1Cc2ccccc2C1=O (stereo not drawn) | . | 2
CN(CCCc1ccco1)S(=O)(=O)c1ccc2c(c1)CCCC(=O)N2 | . | 0.01
O=C(CCSCCc1ccccn1)Nc1ccc(Br)cn1 | . | 0.96
O=C(O)CCCCC(=O)Nc1ccc(Br)cn1 | 1.1 | 0.41
Cc1ccc(Cl)cc1N1C(=O)Nc2ccccc2S1(=O)=O | . | 2
NC(=O)c1ccc(-c2ccnc(-c3ccc(Br)s3)n2)cc1 | -2.3 | .
CCCCn1cc(S(=O)(=O)c2ccc(F)cc2)c(=O)c2cc(F)ccc21 | -2 | -0.32

(next part)
SMILES | CDC25B-CDK2 inh | HIV TAR-Tat
CCCNS(=O)(=O)c1ccc(OC)c(-c2nnc3c4ccccc4c(C)nn23)c1 | -1.6 | 2.7
O=C(c1ccc2c(c1)OCO2)N1CCN(Cc2noc3ccccc23)CC1 | . | 1
CCOc1ccc(NC2=NS(=O)(=O)C(c3ccc(OC)cc3)=C2C)cc1 | -1.9 | -0.18
CC1(C)Cc2ccccc2C(NC(=O)NC2CCCCC2)=C1C#N | -2.4 | 0.33
CC1=C(C(=O)N2CCC(C)CC2)C2(CCN(S(C)(=O)=O)CC2)OC1=O | . | -0.5
CCOc1cccc(C2CC(=O)Nc3c2c(C)nn3-c2ccc3nnc(C)n3n2)c1 (stereo not drawn) | . | -0.13
c1ccc2c(c1)nc(N1CCN(C3CCCCC3)CC1)n1cnnc21 | . | 2.5
Cc1ccc(Cl)cc1NS(=O)(=O)C1CCS(=O)(=O)C1 (stereo not drawn) | -3.8 | -1.1
CCOCc1nc(N2CCOCC2)sc1C(=O)NCc1ccc(C)o1 | . | 1
C=Cc1ccc(COc2ccccc2-c2nnc(-c3ccccc3)o2)cc1 | . | 0.52
CC(NS(=O)(=O)c1ccc(Oc2c(Cl)cccc2[N+](=O)[O-])cc1)c1ccccc1 (stereo not drawn) | 4.2 | .
c1nc(NC2CCCC2)c2nc3n(c2n1)CCCC3 | . | 0.27

2 of these compounds in another layout.
> CCCNS(=O)(=O)c1ccc(OC)c(-c2nnc3c4ccccc4c(C)nn23)c1
  CDC25B-CDK2 inh = -1.6	HIV TAR-Tat = 2.7
> O=C(c1ccc2c(c1)OCO2)N1CCN(Cc2noc3ccccc23)CC1
  CDC25B-CDK2 inh = .	HIV TAR-Tat = 1

(cont.)
SMILES | CDC25B-CDK2 inh | HIV TAR-Tat
NN/C(N)=N/C(N)=Nc1ccccc1F | -0.69 | .
CN1CC(=O)N/C1=N\C(=O)Nc1cccc(Cl)c1 | -0.46 | .
O=C(CNC(=O)c1ccc(Cl)cc1)OCc1cc(=O)n2ccsc2n1 | . | 0.35
Cc1ccc(C(=O)CCC(=O)O)cc1 | . | 2.5
CCOC(=O)c1c(C)[nH]c(NC(=O)Nc2cc(C)ccc2C)c1C | 0.83 | -0.71
O=C(CSc1nc(-c2cccs2)cc(C(F)(F)F)n1)NCc1ccncc1 | 2.1 | -0.13
O=c1[nH]c(-c2ccccc2)c(-c2ccccc2)[nH]1 | -1.9 | 2.5
Cc1nc(-n2[nH]c(C)c(CC(=O)N3CCN(c4ccc(F)cc4)CC3)c2=O)sc1C | -0.94 | -1.8
O=C(NCCNc1ccc(C(F)(F)F)cn1)Nc1cccc(Cl)c1Cl | -0.69 | .
CC1(C)CC(=O)C2=C(C1)Nc1ccccc1N(C(=O)NCC1CCCO1)C2c1ccc(F)cc1 (stereo not drawn) | . | 0.42
Cc1ccc(C(=O)C(OC(=O)c2c(C)cc(=O)oc2C)c2ccccc2)cc1 (stereo not drawn) | -0.15 | -1.4
CCSC1=C(C#N)C(=O)NC(CO)S1 (stereo not drawn) | -1.3 | 1.1

Not a retest: 15 of the compounds above.
SMILES | CDC25B-CDK2 inh | HIV TAR-Tat
c1ccc2c(c1)nc(N1CCN(C3CCCCC3)CC1)n1cnnc21 | . | 2.5
Cc1ccc(Cl)cc1NS(=O)(=O)C1CCS(=O)(=O)C1 (stereo not drawn) | -3.8 | -1.1
CCOCc1nc(N2CCOCC2)sc1C(=O)NCc1ccc(C)o1 | . | 1
C=Cc1ccc(COc2ccccc2-c2nnc(-c3ccccc3)o2)cc1 | . | 0.52
CC(NS(=O)(=O)c1ccc(Oc2c(Cl)cccc2[N+](=O)[O-])cc1)c1ccccc1 (stereo not drawn) | 4.2 | .
c1nc(NC2CCCC2)c2nc3n(c2n1)CCCC3 | . | 0.27
NN/C(N)=N/C(N)=Nc1ccccc1F | -0.69 | .
CN1CC(=O)N/C1=N\C(=O)Nc1cccc(Cl)c1 | -0.46 | .
O=C(CNC(=O)c1ccc(Cl)cc1)OCc1cc(=O)n2ccsc2n1 | . | 0.35
Cc1ccc(C(=O)CCC(=O)O)cc1 | . | 2.5
CCOC(=O)c1c(C)[nH]c(NC(=O)Nc2cc(C)ccc2C)c1C | 0.83 | -0.71
O=C(CSc1nc(-c2cccs2)cc(C(F)(F)F)n1)NCc1ccncc1 | 2.1 | -0.13
O=c1[nH]c(-c2ccccc2)c(-c2ccccc2)[nH]1 | -1.9 | 2.5
Cc1nc(-n2[nH]c(C)c(CC(=O)N3CCN(c4ccc(F)cc4)CC3)c2=O)sc1C | -0.94 | -1.8
O=C(NCCNc1ccc(C(F)(F)F)cn1)Nc1cccc(Cl)c1Cl | -0.69 | .

More compounds.
SMILES | CDC25B-CDK2 inh | HIV TAR-Tat
CCS(=O)(=O)NC(C)C(c1cccs1)N1CCN(c2ccc(F)cc2)CC1 (stereo not drawn) | -1.5 | .
Cc1ccc(CSc2ccc(-c3ccncc3)nn2)cc1 | . | 0.83
Nc1ccn([C@H]2CC[C@@H](CO)O2)c(=O)n1 | -1.5 | -0.71
Cc1ccc(-c2nc3ncccc3o2)cc1NC(=O)c1ccc([N+](=O)[O-])o1 | -0.43 | 0.85
Cc1nn2c(=O)cc(COc3cccc(NS(=O)(=O)c4ccccc4)c3)nc2s1 | -0.62 | 0.12
CC(C)Cc1nn2c(=O)cc(COC(=O)COc3ccc(Cl)cc3)nc2s1 | . | 0.91
Cc1ccc2c(c1)sc1nc(C)c(S(=O)(=O)Nc3cccc(F)c3)c(=O)n12 | . | 1.1
O=C(O)Cn1c(=O)[nH]c2c(-c3ccccc3F)c[nH]c2c1=O | -1.7 | -0.05
Cc1noc(C)c1Cc1ccc(C(=O)NC(C)C)o1 | . | 1.7
O=C(NC1CCCC1)c1ccc(CNc2c(N3CCOCC3)c(=O)c2=O)cc1 | 0.36 | -0.41
CCCCn1c(=O)c2c(nc3n2CCN3c2ccc(F)cc2)n(C)c1=O | . | 0.38
O=C(NCCCn1cccc1)c1c(F)cccc1F | -1.3 | .
CCOc1ccc(C2OCC(C)(C)n3c(-c4ccc(OC)cc4)c4c(=O)n(C)c(=O)n(C)c4c32)cc1 (stereo not drawn) | -1.1 | 0.16
CC(=O)Oc1cc2c(C(=O)N3CCN(c4ccccc4)CC3)c(C)oc2c2ccccc12 | 11* | -1.2
O=C(NCCc1cccs1)NC1COc2ccccc2C1 (stereo not drawn) | . | 0.48
CCc1ccc(Oc2coc3cc(OC(C)C(=O)OC)ccc3c2=O)cc1 (stereo not drawn) | 7.1 | .
N#CC1=C(N)OC2=C(C(=O)CCC2)C1c1ccc(C2C(C#N)=C(N)OC3=C2C(=O)CCC3)cc1 (stereo not drawn) | -0.12 | .
O=C(Nc1cccc(Br)c1)c1cnc2sc(N3CCOCC3)nn2c1=O | -2.9 | 1.7
Cc1ccc2c(ccn3cc4c(c(=O)n(C)c(=O)n4C)c23)c1 | 1.3 | .
CCCc1nnc(SCc2cc(=O)c3c(C)cc(C)cc3[nH]2)n1C | . | -0.93
COc1ccc(OC)c(C2C3=C(Nc4c2c(=O)n(C)c(=O)n4C)c2ccccc2C3=O)c1 (stereo not drawn) | -0.37 | -1.6
O=C(Nc1ccco1)N1CCN(c2ccccc2F)CC1 | -0.23 | -2.6
Cn1c(=O)c2sccc2n2c(CCCC(=O)N3CCCCC3)nnc12 | . | -2.2
O=C(CCS(=O)(=O)c1ccccc1)Nc1nc(-c2ccccn2)cs1 | . | 0.43
O=C1C(=O)N(Cc2cccc(Cl)c2)c2ccccc21 | . | 0.69
CCc1nc(SCc2cc(=O)n3c(C)csc3n2)n[nH]1 | . | 0.96
O=C(Cn1c(=O)oc2cc(S(=O)(=O)N3CCc4ccccc43)ccc21)NC1CCCCCC1 | -1.4 | .
CC1(C)C(C#N)=C(N)OC2=C1C(=O)CCC2 | -0.3 | .
